Screening data from PubChem BioAssay.
PKD1 inh = blocks activity of human protein kinase D1 | PKD1 kinase fluorescence polarization assay | Q15139 | AID 797 | hit rate 0.056% among 200,000 | inhibition, %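 (about 10 µM by stock and volumes)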;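 active = inhibition of 50% or more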;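 note: controls were vehicle for no effect and a reference inhibitor for full effect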
GALR2 ag = activates the human galanin receptor 2 | GALR2-expressing cells, agonist activation read-out | activation, %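 (tested at 5 µM)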 | hit rate 0.48% among 140,000;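 active = above mean plus 3 SD of all compounds, about 5% in these data, not always enough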;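 note: 0% = vehicle buffer wells and 100% = reference agonist at full effect; tested in CHO reporter cells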
Target sequence (O43603 whole entry, looked up): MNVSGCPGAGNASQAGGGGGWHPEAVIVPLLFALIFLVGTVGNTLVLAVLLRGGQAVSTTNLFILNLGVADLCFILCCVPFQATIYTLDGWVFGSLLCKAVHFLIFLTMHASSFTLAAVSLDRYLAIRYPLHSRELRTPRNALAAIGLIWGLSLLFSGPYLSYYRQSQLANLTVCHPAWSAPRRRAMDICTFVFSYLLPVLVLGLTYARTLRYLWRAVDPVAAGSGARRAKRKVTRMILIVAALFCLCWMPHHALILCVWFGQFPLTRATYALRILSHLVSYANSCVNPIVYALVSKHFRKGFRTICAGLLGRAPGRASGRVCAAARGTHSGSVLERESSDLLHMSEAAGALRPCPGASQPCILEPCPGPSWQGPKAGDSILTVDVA
HSV replic up = HSV replication enhancement. maximum fold increase. hit rate 0.005% among 220,000. HSV replication augmentation in cells, fold increase;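 active = peak rise of 1.5-fold or more in the series; tested in PC3 cells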;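 note: first round at 10 µM; read as green reporter fluorescence; hits show the peak of a series up to 25 µM; 1 = signal of infected wells without compound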
RGS16-Gao HTS = modulates binding between human RGS16 and Galphao; O15492+P09471; bead-based flow cytometry RGS16-Galphao binding, fluorescence; actives lie on both sides; binding response (% of control), % at 10 µM; hit rate 0.38% among 220,000; AID 1441;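 active = below 25% or above 175%, edge rows of some plates excepted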;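 note: Galphao activated by GDP with aluminum fluoride before binding; 100% = wells without compound and 0% = beads without RGS; some results beyond the cut were filed as inactive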
Target sequence (O15492 whole entry, looked up): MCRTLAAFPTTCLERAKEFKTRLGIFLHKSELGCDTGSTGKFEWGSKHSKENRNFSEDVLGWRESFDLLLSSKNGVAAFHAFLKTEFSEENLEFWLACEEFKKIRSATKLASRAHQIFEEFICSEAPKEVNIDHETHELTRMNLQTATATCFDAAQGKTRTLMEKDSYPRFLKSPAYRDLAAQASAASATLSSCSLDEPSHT
Target sequence (P09471 whole entry, looked up): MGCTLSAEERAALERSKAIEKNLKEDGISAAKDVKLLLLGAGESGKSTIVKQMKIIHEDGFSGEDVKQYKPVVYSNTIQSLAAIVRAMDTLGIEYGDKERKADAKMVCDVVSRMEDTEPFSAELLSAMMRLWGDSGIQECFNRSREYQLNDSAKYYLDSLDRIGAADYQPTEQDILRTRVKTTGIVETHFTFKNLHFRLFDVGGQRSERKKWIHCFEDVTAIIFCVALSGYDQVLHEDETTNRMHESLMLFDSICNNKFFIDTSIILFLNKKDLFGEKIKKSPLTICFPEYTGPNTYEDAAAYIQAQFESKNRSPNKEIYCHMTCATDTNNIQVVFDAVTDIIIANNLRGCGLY
Insulin prom inh = TRM-6 insulin promoter activity inhibition. inhibition, % at 2 µM. hit rate 0.9% among 130,000. TRM-6 cells (human fetal islet line), insulin promoter-eGFP reporter, imaging; reporter expression induced with tamoxifen;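 active = inhibition above the mean plus 3 SD, with well images judged a real hit on visual review, cut at about 60% in these data, passing the limit was not always enough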
Insulin prom inh cell count = further read-out of Insulin prom inh, marked with its call; normalized cell count, %; measured here: cell count, toxicity; reference of the scale not given here;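 cells exposed to compound for 48 h; stained nuclei by imaging scaled within each plate; lower means fewer cells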
HSV replic up primary fold = also measured in HSV replic up; calls as there; fold increase; compound at 10 µM; measured here: primary screen fold increase 10 uM; tested in PC3 cells;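 GFP signal in the first replicate; 1 = infected wells without compound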
Active calls of the source: *; i = inactive; x = no result given; [ ] = another dose, or the depositor's remark. Compounds as they come; 1.2% or so of the library scored in one or more.

SMILES	PKD1 inh	GALR2 ag	HSV replic up	HSV replic up primary fold	RGS16-Gao HTS	Insulin prom inh	Insulin prom inh cell count
Cc1ccc2cc(CN(CCCO)S(=O)(=O)c3cccc4nsnc34)c(=O)[nH]c2c1C	-2	-1.6	i	0.7	100	-18	90
O=C(Cn1c(-c2cscn2)nc2ccccc21)Nc1ccc(Cl)cc1	6	-1.2	i	0.72	97	-6	96
Cc1ccc(CSc2ccc(-c3ccco3)nn2)cc1	9	-0.7	i	0.96	98	x	x
Cc1ccc(/C(=N\O)c2oc3c(C)c4oc(=O)cc(C)c4cc3c2C)cc1	-2	-1.1	x	x	101	x	x
COc1ccc(-c2ccc(C#N)c(SCC(=O)Nc3sc4c(c3C#N)CCC4)n2)cc1	-9	-0.7	i	1.1	102	33	58
CC(C)(C)NC(NC(=O)Cc1ccccc1)C(Cl)(Cl)Cl (stereo not given)	-12	-1.0	i	0.91	100	-65	146
CC(=O)Nc1ccc(N(C(=O)c2ccco2)C(C(=O)NC2CCCC2)c2ccc(N3CCOCC3)cc2)cc1 (stereo not given)	-7	x	i	0.93	97	x	x
O=C(NCCNS(=O)(=O)c1ccc(C(F)(F)F)cc1)N1CCOCC1	x	x	i	1.1	100	x	x
COC(=O)c1ccc(-n2nnnc2SCc2nn[nH]n2)cc1	3	-2.2	i	0.88	101	-42	79
O=C(CCn1c(=O)oc2ccccc21)Nc1ccccc1	-5	7.9*	i	0.96	108	x	x
Cn1c(NC(=O)c2ccccc2NC(=O)C(C)(C)C)nc2ccccc21	-6	-0.2	i	0.92	111	x	x
Nc1nc(NCc2ccco2)nc(Nc2cccc(F)c2)c1[N+](=O)[O-]	x	x	i	1.1	103	x	x
COc1ccc(Nc2c(-c3ccco3)nc3ccc(C)cn23)cc1	-1	x	i	0.99	95	-25	133
Cc1cccc(OCC(O)Cn2c(=N)n(CCN3CCOCC3)c3ccccc32)c1 (stereo not given)	-3	-1.6	i	0.93	102	-186	82
COc1ccc(CN(C)CC(=O)Nc2c(C)cccc2C)c(OC)c1	2	x	i	0.96	101	x	x
COc1ccc(Cc2nnc(NC(=O)C3CCCO3)s2)cc1 (stereo not given)	9	-3.0	i	0.94	102	-26	69
CCOC(=O)c1[nH]c(C)c(C(=O)N2CCOCC2)c1C	-3	-1.6	i	0.87	108	x	x
Cc1ccc2nc(-c3ccc(NC(=O)CCS(=O)(=O)c4ccccc4)cc3)sc2c1	7	0.2	i	0.94	101	x	x
CC(=O)Nc1ccc(NC(=O)CN(c2ccc(C34CC5CC(CC(C5)C3)C4)cc2)S(C)(=O)=O)cc1	-6	-0.6	i	0.88	96	8	80
O=P(c1ccccc1)(c1ccccc1)C(O)c1ccccn1 (stereo not given)	x	x	i	0.96	92	x	x
Cc1ccc(S(=O)(=O)N(CC(=O)O)Cc2ccccc2F)cc1	-5	-1.9	i	0.92	101	-31	89
CCOc1ccc(C(=O)Nc2ccc(NC(=O)c3ccco3)c(Cl)c2)cc1Br	-22	2.7	i	0.76	82	-55	100
O=C(CSc1nc2ccccc2s1)NCCCN1CCOCC1	-3	-2.9	i	0.93	100	-73	101
Cc1occc1-c1nnc(SCC(=O)Nc2ccccc2)n1C(C)c1ccccc1 (stereo not given)	-17	-1.4	x	x	96	-50	50
CCCCOC(=O)c1ccc(N=Nc2c(C)c(C#N)c(O)[nH]c2=O)cc1	x	x	i	0.98	98	x	x

As entered above:
O=C(CSc1nc2ccccc2s1)NCCCN1CCOCC1 in GALR2 ag has -2.9
COc1ccc(CN(C)CC(=O)Nc2c(C)cccc2C)c(OC)c1 in HSV replic up primary fold has 0.96

Additional records:
SMILES	PKD1 inh	GALR2 ag	HSV replic up	HSV replic up primary fold	RGS16-Gao HTS	Insulin prom inh	Insulin prom inh cell count
Cc1[nH]nc(N=CC2=C(O)CC(C)(C)CC2=O)c1-c1ccccc1	1	14*	i	0.96	99	28	171
O=C(O)CC/C(=N\Nc1ccc([N+](=O)[O-])cc1S(=O)(=O)N1CCOCC1)c1cccs1	x	x	i	0.98	102	x	x
Cc1cc(C)nc(NC(=O)c2ccc(C)c([N+](=O)[O-])c2)n1	-7	-3.3	i	0.93	109	-4	129
CCOC(=O)C1CCN(c2c(NCc3ccc(C(=O)NCCC(C)C)cc3)c(=O)c2=O)CC1	-6	-1.9	i	0.94	103	0	96
Cc1ccc(C(=O)N2c3ccccc3CC2C)o1 (stereo not given)	-2	x	i	0.97	103	x	x
O=C1NC(=O)/C(=C\c2ccc(OCc3cccc(C(=O)O)c3)c(Cl)c2)N1	1	x	i	0.96	96	x	x
COc1ccccc1Nc1nnc(SCc2nnc(-c3cc(OC)c(OC)c(OC)c3)o2)s1	-4	-1.2	i	0.88	118	0	72
N#CC1=C(N)Oc2c(ccc3cccnc23)C1c1ccccc1 (stereo not given)	x	x	i	0.81	104	x	x
C=CCSc1nncn1/N=C/c1ccc(OC)cc1	-8	-1.3	i	0.94	100	x	x
Cc1cc(C(F)(F)F)n2nc(-c3cccs3)cc2n1	x	x	i	0.93	98	x	x
Cc1nnc(SCC(=O)N2N=C(c3ccc(Cl)cc3)CC2c2ccco2)[nH]c1=O (stereo not given)	0	x	i	1	100	-60	111
COCCn1c(=N)c(C(=O)NCCc2ccccc2)cc2c(=O)n3cccc(C)c3nc21	6	-0.9	i	0.99	x	5	158
CCOC(=O)Nc1ccc2c(c1)N(C(=O)CN1CCN(C)CC1)c1ccccc1S2	-2	-1.0	i	0.84	96	-48	139
Cc1cc(OCCCn2ccnc2)ccc1C(C)C	-11	-0.1	i	1.1	108	-15	144
Nc1ccc(CC2SC(=O)NC2=O)cc1 (stereo not given)	-5	-0.2	i	1.1	64	28	122
Cc1ccc2c(c1)c1nnc(SCC(=O)Nc3ccccc3C(F)(F)F)nc1n2CC(=O)O	-1	x	i	1	109	x	x
N#Cc1c(N2CCOCC2)nc(N2CCCCC2)c2c1CCN(C1CCCCC1)C2	-4	0.9	i	1	99	-45	107
CCC(=O)NCCN1CCN(C(=O)CC)CC1	-9	-1.2	i	0.93	98	39	131
C/C(=N\NC(N)=O)c1ccccc1	-1	x	i	1.4	98	x	x
COC(=O)c1[nH]c2ccc(F)cc2c1NS(=O)(=O)c1ccc(OC)cc1	-7	-2.2	i	0.68	102	-57	13
Cn1c2c(c(=O)n(C)c1=O)C(c1cccc([N+](=O)[O-])c1)Nc1ccccc1O2 (stereo not given)	-6	-1.2	i	0.91	103	-10	236
Cc1ccc(/C=C(\NC(=O)c2ccccc2)C(=O)OCc2ccccc2)cc1	-20	-1.3	i	0.92	103	-51	123
C/C(=N/NC(=O)CN1CCN(S(=O)(=O)c2ccc(Br)cc2)CC1)c1ccncc1	x	x	i	0.97	84	x	x
COc1ccc(Cl)cc1N(CC(=O)NCC(C)C)S(=O)(=O)c1ccc(C)c([N+](=O)[O-])c1	1	1.2	i	1	115	x	x
Cc1ccc(N=CC=C2OC(C)(C)C(C)(C)O2)c(C)c1	5	-0.9	x	x	27	46	98

Remaining list, next part.
SMILES	PKD1 inh	GALR2 ag	HSV replic up	HSV replic up primary fold	RGS16-Gao HTS	Insulin prom inh	Insulin prom inh cell count
C=CCNc1nc(NCCO)nc(N2CCCC2)n1	-3	-1.0	i	0.88	101	62	86
Cc1ccnc2nc(C(=O)NCc3cccs3)nn12	-7	-0.2	i	0.9	106	-40	149
CSc1nsc(SCC(=O)Nc2ccc3c(c2)OCCO3)n1	-1	-0.2	i	0.84	100	x	x
Cc1nc(C)n(CC(=O)N2CCCC(C(=O)c3ccc(C(F)(F)F)cc3)C2)n1 (stereo not given)	1	x	i	1	99	x	x
COc1cccc(C2/C(=C(\O)c3ccc(OC)c(OC)c3)C(=O)C(=O)N2c2cc(C)on2)c1 (stereo not given)	1	-3.0	i	0.99	109	x	x
CCOC(=O)N1CCC(NC(=O)CS(=O)(=O)Cc2nc(-c3ccc(C)cc3)oc2C)CC1	-8	-3.2	i	0.84	104	x	x
Cc1cc(C)cc(NC(=O)Cn2cc3c(n2)CCCCC3)c1	0	-2.5	x	x	105	x	x
O=C(O)CCCN1C(=O)C2C3CC(C2C1=O)C1C(c2ccccc2)c2sc(=O)[nH]c2SC31 (stereo not given)	-2	x	i	0.87	98	-9	118
Cc1sc2ncnc(Sc3nnc4sc5ccccc5n34)c2c1C	-5	-1.9	i	0.97	292*[activator]	-25	43
CCc1ccc(NC(=O)CSc2nnc(-c3ccccn3)n2C)cc1	1	-0.2	i	0.94	100	-17	190
O=C(O)CCSCC(=O)c1ccc2c(c1)OCCO2	7	-2.4	i	0.93	89	x	x
Cc1ccc(NC(=O)CSc2nnc(Cc3cccn3C)n2-c2ccc(F)cc2)c(C)c1	4	-1.9	i	1	101	x	x
COc1cc(COCC(O)CN2CCN(Cc3ccccc3)CC2)cc(OC)c1OC (stereo not given)	-5	x	i	0.86	101	x	x
CS(=O)(=O)N(CC(=O)NCc1ccccc1Cl)C1CCCCC1	-4	-0.7	i	1.1	103	-100	54
CCOc1ccc(N2C(=O)CC(N(O)c3ccccc3)C2=O)cc1 (stereo not given)	27	-2.9	x	x	102	60	96
CC(=O)SC1CC(=O)N(c2c(C)cccc2C)C1=O (stereo not given)	x	x	i	0.88	98	x	x
O=C(CC1NCCc2ccccc21)Nc1ccccc1Cl (stereo not given)	2	x	i	0.92	100	12	167
CCOC(=O)C1(Cc2ccccc2)CCN(Cc2cccn2-c2cccnc2)CC1	-1	x	i	1	99	x	x
c1ccc(-n2nnnc2CN2CCOCC2)cc1	10	-2.4	i	0.95	101	-190	6
COc1cccc(/C=N/NC(=O)c2cccc([N+](=O)[O-])c2)c1OS(=O)(=O)c1ccccc1	5	-0.1	i	0.72	97	x	x
O=C(CCc1ccccc1)Nc1nnc(-c2cccs2)o1	-8	-4.1	i	0.89	70	x	x
CC(C)c1ccccc1NC(=O)COC(=O)CNC(=O)c1ccc(Br)cc1	-6	-0.6	i	1	106	43	69
Cc1nnc(NC(=O)CSc2nc3c(c(=O)n2C)SC(C)C3)s1 (stereo not given)	0	-1.2	i	0.9	118	x	x
O=C(c1cccc(C(F)(F)F)c1)N1CCN(C2CCCCC2)CC1	-1	1.0	i	1	100	24	94
COc1cccc(/C=C2\Sc3ccc(C(=O)NCc4cccnc4)cc3N(C)C2=O)c1	-6	x	i	0.87	100	43	110

A different layout for part of the listing above:
O=C(c1cccc(C(F)(F)F)c1)N1CCN(C2CCCCC2)CC1
  PKD1 inh: -1
  GALR2 ag: 1.0
  HSV replic up: i
  HSV replic up primary fold: 1
  RGS16-Gao HTS: 100
  Insulin prom inh: 24
  Insulin prom inh cell count: 94
O=C(O)CCCN1C(=O)C2C3CC(C2C1=O)C1C(c2ccccc2)c2sc(=O)[nH]c2SC31 (stereo not given)
  PKD1 inh: -2
  GALR2 ag: x
  HSV replic up: i
  HSV replic up primary fold: 0.87
  RGS16-Gao HTS: 98
  Insulin prom inh: -9
  Insulin prom inh cell count: 118
CS(=O)(=O)N(CC(=O)NCc1ccccc1Cl)C1CCCCC1
  PKD1 inh: -4
  GALR2 ag: -0.7
  HSV replic up: i
  HSV replic up primary fold: 1.1
  RGS16-Gao HTS: 103
  Insulin prom inh: -100
  Insulin prom inh cell count: 54

More results
SMILES	PKD1 inh	GALR2 ag	HSV replic up	HSV replic up primary fold	RGS16-Gao HTS	Insulin prom inh	Insulin prom inh cell count
COc1ccc(CCNC(=O)C(NC(=O)OCc2ccccc2)C(C)C)cc1OC (stereo not given)	x	x	i	1.1	99	x	x
COc1ccc(OCCSc2nnc(CC(=O)Nc3cccc(Cl)c3Cl)n2C)cc1	-5	-1.4	i	0.98	94	-40	51
COCCNC(C(=O)Nc1cc(Cl)cc(Cl)c1)c1ccccc1 (stereo not given)	-7	-0.8	i	1.1	103	-52	123
O=C(O)CCNC(=S)Nc1cccc(F)c1	x	x	i	0.82	114	x	x
CCc1ccc(C2C(C#N)=C(N)SC(N)=C2C#N)cc1	5	-1.2	i	1.2	98	x	x
COC1CCCN(C(=O)c2ccc(OC3CCN(CCc4ccccc4)CC3)cc2)C1 (stereo not given)	-1	x	i	1	102	x	x
O=C(O)C1CC=CCC1C(=O)NCc1ccccc1 (stereo not given)	-15	-1.2	i	0.9	106	6	94
CCN(CC)CCOC(=O)c1ccc(N/C=C(/C#N)c2nc(-c3ccc(OC)c(OC)c3)cs2)cc1	x	x	i	1.1	87	x	x
COC(=O)c1ccc(COC(=O)CNC(=O)c2ccc(-c3ccccc3)cc2)cc1	-4	-0.2	i	1	111	-13	93
O=C(c1cc(-c2cccc(O)c2)on1)N1CCc2ccccc2C1	1	-1.2	i	0.88	102	30	131
O=C(Nc1ccc2c(c1)OCCO2)c1ccc(Br)s1	2	-1.0	i	0.86	109	-48	94
